SARS PLP yeast: qHTS of Yeast-based Assay for SARS-CoV PLP | S. cerevisiae expressing SARS-CoV PLpro, growth rescue; control for the full effect not named in the record | Potency, µM (highest dose often 32.9 µM), without a hit: at the highest dose activity, positive = growth rescue | hit rate 0.19% among 330,000; active means well fitted rising curve with a large enough effect; inconclusive means small, poorly fitted or top-dose-only effect; inactive means no such curve, though single readings can be large or run the other way; also: 0% is about no effect; nearly all actives have a fitted effect of over 55% in size; growth read by luminescence after 48 h
RE007 growth inh: qHTS Assay for Inhibitors of the HIV-1 protein Vpr; S. pombe RE007 Vpr strain, BacTiter-Glo ATP luminescence, 24 h; control for the full effect not named in the record; Potency, µM (series often up to 92.2 µM), for inactives: at the top dose activity change, negative = less growth; hit rate 0.21% among 360,000; AID 651644, 2012; active = well fitted falling curve with a large enough effect; inconclusive = small, poorly fitted or top-dose-only effect; inactive = no such curve, though single readings can be large or run the other way;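 also: % is scaled to controls: 0 for no effect and ±100 for the full control effect; nearly all actives have a fitted effect of over 50% in size; the assay follows cell death caused by Vpr and the record does not say whether a fall means rescue or toxicity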
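Fission yeast RE007 carrying one integrated HIV-1 vpr copy, seeded at OD 0.01 in PMG+AL medium with 23 nL pinned compound. Grown 24 h at 30 degrees; viability read by BacTiter-Glo luminescence after 5 min.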
Cruzain Triton: qHTS Assay for Promiscuous and Specific Inhibitors of Cruzain (with detergent); hit rate 0.43% among 200,000; Potency, µM, for the others: max response, negative = inhibition, most hits filed as inhibitors; purified cruzain, Z-FR-AMC fluorescence, 0.01% Triton;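 also: plate controls were neutral wells for no effect and buffer without enzyme for full effect; nearly all actives have a fitted effect of over 40% in size; top concentration of the series not given in the record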
Target sequence (P25779 123-467 limits assumed): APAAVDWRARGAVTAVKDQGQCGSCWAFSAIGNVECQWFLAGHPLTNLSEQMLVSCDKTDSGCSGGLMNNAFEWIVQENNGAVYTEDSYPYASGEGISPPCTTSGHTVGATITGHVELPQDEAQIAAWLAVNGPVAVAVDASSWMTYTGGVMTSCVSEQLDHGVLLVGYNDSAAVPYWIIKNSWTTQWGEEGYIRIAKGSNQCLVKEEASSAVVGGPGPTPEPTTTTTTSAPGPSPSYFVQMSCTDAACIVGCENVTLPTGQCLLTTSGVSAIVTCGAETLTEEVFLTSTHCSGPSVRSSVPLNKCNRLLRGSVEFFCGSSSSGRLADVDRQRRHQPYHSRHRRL
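Cruzain (1.5 nM) preincubated 15 min at RT with compound in 100 mM sodium acetate pH 5.5, 5 mM DTT, 0.01% Triton X-100. Reaction started with 2 uM Z-FR-AMC; AMC fluorescence (ex 360/em 450 nm) change over 60 s gave rate.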
StopGo reporter: High Throughput Screening for Foot and Mouth Disease Virus Antivirals | human cells with a luciferase reporter of 2A StopGo recoding; control for the full effect not named in the record | Potency, µM (titrated, usually from 57.9 µM), without a hit: top-dose signal change, negative = less light | hit rate 1.2% among 410,000 | AID 1159524, 2015; active = well fitted falling curve with a large enough effect; inconclusive = small, poorly fitted or top-dose-only effect; inactive = no such curve, though single readings can be large or run the other way; tested in HEK293T cells; also: % is scaled to controls: 0 for no effect and ±100 for the full control effect; nearly all actives have a fitted effect of over 45% in size; luciferase light after 4 h
Cruzain inh noDet: qHTS Assay for Promiscuous and Specific Inhibitors of Cruzain (without detergent). purified cruzain, Z-FR-AMC fluorescence, no detergent. Potency, µM, inactives show max response, negative = inhibition, most hits filed as inhibitors. hit rate 2.3% among 200,000;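 also: plate controls were enzyme without inhibitor for no effect and buffer without enzyme for full effect; nearly all actives have a fitted effect of over 40% in size; top concentration of the series not given in the record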
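Detergent-free condition (0.00005% Triton X-100) in acetate buffer pH 5.5 with DTT. 1.5 nM enzyme and compound were pre-mixed 15 min, then 2 uM Z-FR-AMC substrate added; reaction progress from fluorescence change between first and third reads (60 s).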
LASV entry inh: qHTS for Inhibitors of binding or entry into cells for Lassa Virus. Lassa virus pseudotype entry inhibition, cell reporter; control for the full effect not named in the record. Potency, µM (titrated, usually from 37.9 µM), for inactives: at the highest dose activity change, negative = inhibition, actives largely listed as inhibitors. hit rate 1.2% among 300,000; active means well fitted inhibition curve with a large enough effect; inconclusive means small, poorly fitted or top-dose-only effect, or effect the other way; inactive means flat fitted curve, though single readings scatter; tested in HEK293 cells; also: % is scaled to controls: 0 for no effect and ±100 for the full control effect; nearly all actives have a fitted effect of over 50% in size; luciferase read-out
Marburg entry inh: qHTS for inhibitors of binding or entry into cells for Marburg Virus | hit rate 1.8% among 300,000 | AID 540276, 2011 | Potency, µM (titrated, usually from 37.8 µM), without a hit: at the highest dose activity change, negative = inhibition, hits mostly inhibitors | Marburg virus pseudotyped entry inhibition, cell reporter; control for the full effect not named in the record; about a third of the inactives were read at about 46 µM; active = well fitted inhibition curve with a large enough effect; inconclusive = small, poorly fitted or top-dose-only effect, or effect the other way; inactive = flat fitted curve, though single readings scatter; tested in HEK293 cells; about a fifth of its hits are not listed in these tables; also: % is scaled to controls: 0 for no effect and ±100 for the full control effect; luciferase read-out
NS1 inh: qHTS Assay for Inhibitors of Influenza NS1 Protein Function; Potency, µM (series often up to 46.1 µM), for the others: top-dose activity, positive = more growth; hit rate 0.4% among 270,000; S. cerevisiae slowed by influenza A NS1, growth recovery by OD600; AID 2326, 2010; active means well fitted rising curve with a large enough effect; inconclusive means small, poorly fitted or top-dose-only effect; inactive means no such curve, though single readings can be large or run the other way; also: nearly all actives have a fitted effect of over 50% in size
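OD600 was taken as the measure of yeast growth restored by compound in an NS1-expressing S. cerevisiae strain. Cells had been washed out of glucose medium and diluted 1:100 into galactose -URA medium, pH 6.0.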
The depositor's hits bear a star; u = inconclusive; x = not tested or not shown; & = joins results of further samples; [ ] = dose if it differs, or a comment. Unless noted, calls follow the shape of the dose curve; as a rule, active = well fitted curve in the direction sought with a large enough effect; inconclusive = small, poorly fitted or top-dose-only effect, or another doubt; inactive = no such curve, though single readings can be large; an effect the other way counts as inactive or inconclusive. Potency is read from the fitted curve at half-maximal effect.

SMILES | SARS PLP yeast | RE007 growth inh | Cruzain Triton | StopGo reporter | Cruzain inh noDet | LASV entry inh | Marburg entry inh | NS1 inh
COc1ccc(CNCC(O)(c2ccccc2)c2ccc(Cl)cc2)cc1 (stereo unspecified) | -1.4% | -13.7% | 4.4% | -12.3% | -1.3% | -14.4% | u | -13.0%
CN(C(=O)CSc1nnc(-c2cccs2)n1C1CC1)C1CCS(=O)(=O)C1 (stereo unspecified) | 4.1% | 7.6% | x | 2.5% | x | -0.3%[46.1 µM] | 29.8% | x
COC(=O)c1cc2sc(C)cc2n1CC(=O)Nc1ccc(C)cc1Cl | x | x | -2.5% | -4.9% | -1.7% | x | -23.3%[46.1 µM] | x
COc1ccc(-n2c(=S)[nH]c3cc(C(=O)NCCCN4CCOCC4)ccc3c2=O)c(OC)c1 | 1.3% | 0.7% | x | -1.1% | x | 21.7% | -20.0% | x
N=c1c(S(=O)(=O)c2ccc(Br)cc2)cc2c(=O)n3ccccc3nc2n1C1CCCCC1 | 1.0% | -1.6% | x | -14.9% | x | x | x | 4.9%
COc1cccc(NC(=O)CN(C)C(=O)/C=C/c2cn(-c3ccccc3)nc2-c2ccc(C)cc2)c1 | x | -17.7% | x | -3.0% | x | u | u | x
O=C(O)c1ccc(CSc2nnnn2-c2ccc(F)cc2)cc1 | 0.2% | 18.9% | x | -4.8% | x | 17.1%[46.1 µM] | u | 0.8%
Cc1ccc(C)c(Cn2c(=O)n(-c3ccc(F)cc3)c(=O)c3sc4ccccc4c32)c1 | x | x | 0.2% | -11.2% | 0.0% | -7.9%[46.1 µM] | -11.6%[46.1 µM] | x
Cc1cc(Cl)ccc1NC(=O)c1cc2ccccn2n1 | x | x | -2.7% | -5.1% | -8.6% | u | x | x
Cc1ccc(CNC(=O)CCNC(=O)N2CCn3c2nc2ccccc23)cc1 | -3.9% | -4.6% | x | -6.9% | x | x | x | 4.9%
c1ccc2c(Nc3ccc4c(c3)OCCO4)c3c(nc2c1)CCC3 | 0.6% | -1.1% | x | u | x | x | x | -0.5%
Cc1c(Cl)c(-c2n[nH]c(=S)n2-c2ccc(F)cc2)nn1C | 2.8% | 1.1% | -0.7% | 32.1%[activator] | -0.2% | 17.3% | u | -2.3%
CCOC(=O)c1[nH]c2ccccc2c1NC(=O)CCN1CCN(C(=O)OCC)CC1 | -3.7% | -14.2% | -0.7% | 4.2% | -1.6% | u | 5.9%&10.2% | -5.8%
COc1cc2nc(SCC(=O)c3ccc(Br)cc3)n3nc(C)nc3c2cc1OC | -12.2% | 11.4% | -0.2% | -13.7% | u | 7.5% | u | 19.5%
CCOc1ccc(CCNC(=O)c2nnc(Cc3ccc(F)cc3)o2)cc1OCC | 5.0% | -4.5% | 1.4% | u | 15.4% | -12.5% | -3.2% | -7.0%

Some of the entries above in another layout:
| SMILES | SARS PLP yeast | RE007 growth inh | Cruzain Triton | StopGo reporter | Cruzain inh noDet | LASV entry inh | Marburg entry inh | NS1 inh |
| --- | --- | --- | --- | --- | --- | --- | --- | --- |
| COc1ccc(CNCC(O)(c2ccccc2)c2ccc(Cl)cc2)cc1 (stereo unspecified) | -1.4% | -13.7% | 4.4% | -12.3% | -1.3% | -14.4% | u | -13.0% |
| CN(C(=O)CSc1nnc(-c2cccs2)n1C1CC1)C1CCS(=O)(=O)C1 (stereo unspecified) | 4.1% | 7.6% | x | 2.5% | x | -0.3%[46.1 µM] | 29.8% | x |
| COC(=O)c1cc2sc(C)cc2n1CC(=O)Nc1ccc(C)cc1Cl | x | x | -2.5% | -4.9% | -1.7% | x | -23.3%[46.1 µM] | x |

New compounds follow
SMILES | SARS PLP yeast | RE007 growth inh | Cruzain Triton | StopGo reporter | Cruzain inh noDet | LASV entry inh | Marburg entry inh | NS1 inh
CCN(CC)C1=N/C(=C\c2ccco2)C(=O)N1c1ccccc1 | -8.1% | -8.6% | -8.0% | -22.5% | -17.2% | -5.6% | 14.0% | -5.2%
Cc1ccc(N(CC(=O)NC2CCCC2)C(=O)CCCC(=O)Nc2ccccn2)cc1C | 2.9% | 3.9% | -3.6% | 4.8% | 5.9% | -15.7% | -18.2% | -9.8%
CCOc1cc(C2C(C(=O)OCC(C)C)=C(C)N=C3SCCC(=O)N32)ccc1OC(C)=O (stereo unspecified) | 6.0% | 10.3% | -10.5% | -5.7% | u | -0.9% | -11.6% | -32.6%
CCOc1ccccc1CNC(=O)C1Cc2cc(S(=O)(=O)N3CCCCC3)ccc2N1C(C)=O (stereo unspecified) | -0.9% | -0.5% | x | -21.5% | x | -12.5%[46.1 µM] | 1.5%[46.1 µM] | 5.0%
N#Cc1c(-c2ccccc2)cc(C2CC2)nc1SCC(=O)O | 17.3% | -11.8% | -4.1% | -21.6% | -3.8% | 15.8% | u | 6.8%
ONC(=Nc1ccccc1Cl)c1ccccc1Cl | -2.8% | -5.0% | x | -26.9% | x | 2.8%[46.1 µM] | 23.6%[46.1 µM] | -3.9%
CCC(C)c1ccc(N(CC(=O)NC(C)(C)C)C(=O)CNC(=O)c2cccs2)cc1 (stereo unspecified) | 0.9% | 15.9% | x | -17.7% | x | -5.5% | -22.7%[46.1 µM] | 9.5%
Cc1ccc(-n2nc(CO)c(C(=O)NCc3cccs3)n2)cc1C | x | x | -3.9% | 10.9% | 4.8% | u | 0.3%[46.1 µM] | x
CCN(CC(=O)NC1CC1)S(=O)(=O)c1ccc(OC)cc1 | 9.9% | 8.3% | x | 13.0% | x | 4.6%[46.1 µM] | -5.6%[46.1 µM] | 9.5%
COC(=O)c1ccccc1NC(=O)c1nn(C)c2c1COc1ccccc1-2 | x | x | -2.1% | 0.0% | 6.3% | -0.2%[46.1 µM] | -4.0%[46.1 µM] | x
COc1ccc(N(CC(=O)NC2CCCCCC2)S(=O)(=O)c2ccc(C)cc2)cc1OC | -0.7% | -4.4% | x | -8.2% | x | -27.2% | 3.8% | 15.2%
CCCCCCn1c(N2CCC(C(N)=O)CC2)nc2c1c(=O)n(C)c(=O)n2C | 0.9% | -6.6% | -0.1% | -19.9% | 21.3% | -6.4% | -1.0% | 0.0%
CCCC(C(=O)NC1CCCC1)N(CC1CCCO1)C(=O)CNS(=O)(=O)c1ccccc1 (stereo unspecified) | 3.3% | 0.3% | x | 15.4% | x | u | 7.4%[46.1 µM] | -2.6%
COc1ccc(CNC(=O)COc2cccnc2[N+](=O)[O-])cc1OC | 7.9% | 12.4% | x | -6.5% | x | x | x | 6.9%
CCc1c(-c2ccccc2)nc2ccccc2c1C(=O)NCCc1ccccc1 | x | x | 0.0% | -4.6% | 5.1% | x | x | x
Cc1cc(C)c(C(N)=O)c(NCCc2ccccc2)n1 | 0.2% | 4.5% | -0.6% | 6.5% | 8.4% | 6.0% | -10.1% | -11.5%
COC(=O)c1ccc(NC(=O)CSCc2ccccc2)cc1 | -7.0% | -15.0% | -2.3% | 14.6% | -0.8% | 13.5% | u | -20.4%
O=C1/C(=C\c2ccc(Br)cc2)SC(=S)N1NS(=O)(=O)c1ccccc1 | -0.2% | -21.9% | x | 10.8% | x | -7.2% | -2.7%[46.1 µM] | -0.4%
Cc1ccccc1Nc1nnc(SCC(=O)c2ccc(O)cc2O)s1 | 3.5% | 0.6% | x | 0.8% | x | -0.8%[46.1 µM] | 1.4%[46.1 µM] | 16.0%
CC(C)(CNS(C)(=O)=O)SCc1ccc(Cl)cc1 | -3.7% | -4.3% | x | -22.3% | x | -1.4%[46.1 µM] | 22.1%[46.1 µM] | x
COc1ccc(NC(=O)CC2C(=O)N(c3ccc(OC)cc3)C(=O)N2CCC2=CCCCC2)cc1 (stereo unspecified) | x | x | -1.6% | -7.7% | 4.5% | 0.2%[46.1 µM] | -7.3%[46.1 µM] | x
Cc1ccc(C2CC(=O)N(c3ccc(F)cc3)C3=C2C(=O)CCC3)cc1 (stereo unspecified) | 2.5% | -1.3% | 4.3% | -17.2% | -5.4% | -2.5% | -21.7% | -2.9%
Cc1ccc2nc(N3CCN(c4ccccc4F)CC3)c3nnnn3c2c1 | x | x | -0.6% | -8.7% | -2.3% | 8.0%[46.1 µM] | x | x
CCn1c(NC(=O)c2ccc(C)cc2)c2ccccc2nc1=O | 1.6% | 3.6% | -0.5% | -16.0% | 10.7% | -15.6% | u | 0.2%
CCOC(=O)c1ccccc1Cc1nc2ccccc2c(=O)[nH]1 | 12.6% | 22.1% | -1.9% | -15.9% | -3.0% | 16.0% | -21.1% | 5.2%
Cc1ccc(C)c(N2CCN(C(=O)CN(C)S(=O)(=O)c3cnc[nH]3)CC2)c1 | -1.5% | -1.7% | 2.5% | -4.4% | 10.1% | -7.4% | 13.2% | 0.2%
COC(=O)Nc1nnc(CCc2ccccc2)s1 | -7.3% | -1.5% | 2.5% | 2.4% | -7.6% | -8.6% | u | -16.5%
COc1ccc(NC(=O)CS(=O)(=O)c2ccc(C)cc2)c(OC)c1 | 21.2% | 24.8% | x | -2.6% | x | -13.9%[46.1 µM] | -1.3%[46.1 µM] | -0.6%
CN(Cc1ccccc1Cl)C(=O)CCNC(=O)c1ccco1 | -0.3% | 8.1% | x | 0.6% | x | -0.5% | 24.2% | x
N#CC1=C(N)Oc2cc(N)ccc2C1c1ccccc1 (stereo unspecified) | x | -14.5% | x | -13.4% | x | u | u | x
O=C(CNC(=O)c1ccc(N2C(=O)c3ccccc3C2=O)cc1)OCC(=O)c1cccc2ccccc12 | 22.5% | 7.1% | -3.9% | -9.5% | u | 11.5% | 8.4% | 27.2%
O=C(c1cccnc1)N1N=C(c2cccs2)CC1c1ccc(F)cc1 (stereo unspecified) | 1.9% | 14.3% | x | -0.6% | x | x | -23.6%[46.1 µM] | x
COc1ccc(OCc2nn3c(-c4cccc(OC)c4)nnc3s2)cc1 | -16.6% | 2.5% | -6.6% | -16.6% | 8.1% | -25.4% | u | -71.3%

Source: PubChem BioAssay (National Center for Advancing Translational Sciences (NCATS))
